Ba CapD inh: inhibitors of Bacillus anthracis CapD enzyme; purified CapD enzyme, fluorescence intensity read-out; stronger effect = lower value; some hits fall short of the stated cut; 140,000 tested, 0.23% active; z-score (no concentration beside the values); AID 492967;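 active = z-score under -4 in either of two replicates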;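 also: stock transfer was 100 nL into about 40 µL; score is relative to mean and spread of the plate; one replicate is shown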
AID504770: E. coli YBA685 growth inhibition, screen for V. cholerae RctB inhibitors; E. coli YBA685 rctB-dependent plasmid, OD600 growth, 3 h; stronger effect = lower value; z-score (concentration not given with the values); 130,000 tested, 0.27% active; AID 504770;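 active = z-score under -2 on both plates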;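 also: wells of about 30 µL received 100 nL stock; score is relative to mean and SD of the test wells; the first replicate is given; strong numbers were not always called active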
* hit, by the source's call; . = no result given; & = joins results of further samples. These rows are one share of the data, so the mix of outcomes need not match the whole.

Below each compound – Ba CapD inh	AID504770
> Cc1ccccc1-n1c(SCC(=O)c2ccc(Cl)cc2)nc2[nH]ncc2c1=O
    -2.2	0.1
> N#CC(CO)(Cc1ccccc1)c1nc2ccccc2[nH]1 (centres undefined)
    -0.72	-0.9
> CSc1nc(C)nc(Sc2ccccc2)c1C#N
    -0.42	2
> CN1CCN(CC(O)Cn2c3ccc(Cl)cc3c3cc(Cl)ccc32)CC1 (centres undefined)
    1.6	.
> O=C(CN1CCOCC1)NN=C1CCCCC1
    .	-0.15
> COc1ccc(C(=O)OCCCN(C2=NS(=O)(=O)c3ccccc32)c2ccccc2)cc1
    -0.92	.
> Cc1cccc(C2c3c(n(C)c(=O)n(C)c3=O)N=C3c4ccccc4C(=O)C32)c1 (centres undefined)
    -0.24	0.35
> COc1ccc(C(=O)N2CCN(CCNC(=O)C(=O)Nc3ccc(C)cc3)CC2)cc1
    -0.35	.
> CCN(CC)C(=O)/C=C/c1ccc2c(c1)OCO2
    .	1.4
> O=C(Nc1cccc(C(F)(F)F)c1)c1ccc(F)c(S(=O)(=O)N2CCN(c3ccccc3F)CC2)c1
    0.12	.
> CN(C)c1cc(N)c2cc(Cl)ccc2n1
    0.8	-1
> CS/C(=N\S(=O)(=O)c1ccccc1)N1CCCC1
    0.53	-0.1
> Cc1ccc(OCc2n[nH]c(=S)n2-c2ccccc2)c2c1CCC2
    0.44	.
> COC(=O)C1=C(N)Oc2ccccc2C12C(=O)N(C)c1c2c(=O)oc2ccccc12 (centres undefined)
    .	0
> CCn1c2ccccc2c2cc(CN3CCN(C(=O)OCc4ccccc4[N+](=O)[O-])CC3)ccc21
    0.81	.
> O=C(O)c1ccc2c(=O)n3c(nc2c1)CCC3
    .	0
> C/C=C(\C)C(=O)N1CCC(C(=O)c2ccccc2)CC1
    -0.51	-0.5
> Cc1onc(-c2c(Cl)cccc2Cl)c1CO
    -0.01	.
> COC(=O)c1ccc(S(=O)(=O)N2CCCN(C(=O)c3cccs3)CC2)n1C
    0.62	-0.95
> O=C(c1ccco1)N1CCN(S(=O)(=O)c2ccc3c(c2)CN(C(=O)C(F)(F)F)CC3)CC1
    -0.13	.
> CN1C[C@H](C(=O)N[C@]2(C)O[C@@]3(O)[C@@H]4CCCN4C(=O)[C@H](Cc4ccccc4)N3C2=O)C[C@@H]2c3cccc4[nH]cc(c34)C[C@H]21
    -0.29&-0.68	0.2
> CCOC(=O)N1CCC(=NNC(=O)c2ccccc2)CC1
    .	1.2
> CSc1nc2n(n1)C(c1ccccc1)C=C(C)N2 (centres undefined)
    3.1	-0.35
> Cc1cc(-c2ccc(C)c(S(=O)(=O)N3CCN(CCOc4ccc(Cl)cc4)CC3)c2)on1
    -1.7	0.05
> COc1ccccc1-n1nnnc1SCC(=O)NC1CCCC1
    0.62	0.55
> Cc1cc(C)c(C)c(S(=O)(=O)N2CCN(CN3C(=O)CNC3=O)CC2)c1C
    .	0.1
> CCSc1ccccc1C(=O)NCCO
    0.75	-0.35
> O=C1C2N=NN(CC(=O)N(c3ccccc3)c3ccccc3)C2C(=O)N1c1ccc(Cl)cc1 (centres undefined)
    -0.26	-2.1
> Clc1ccc2c(c1)C1C=CCC1C(c1ccccc1)N2 (centres undefined)
    4.4	0.8
> CC(=O)N(c1ccc(F)cc1)c1nc(-c2cc3ccccc3oc2=O)cs1
    30	-0.1

Entries of single compounds, looked up by structure:
COc1ccc(C(=O)OCCCN(C2=NS(=O)(=O)c3ccccc32)c2ccccc2)cc1 is entered as Ba CapD inh: -0.92; AID504770: .
Cc1cc(-c2ccc(C)c(S(=O)(=O)N3CCN(CCOc4ccc(Cl)cc4)CC3)c2)on1 is entered as Ba CapD inh: -1.7; AID504770: 0.05

Further records
Below each compound – Ba CapD inh	AID504770
> Cc1cc(C(=O)NNC(=O)C(F)(F)F)ccc1[N+](=O)[O-]
    -1.5	.
> Cc1nc2nc(C)c(NS(=O)(=O)c3ccc(Cl)s3)c(=O)n2[nH]1
    0.095	0.1
> CCOc1cc(C2CC(=O)NC(SCc3cccc4ccccc34)=C2C#N)ccc1O (centres undefined)
    -0.24	.
> CC(C)=C(C#N)c1nc2ccccc2s1
    .	-0.25
> O=C1c2ccccc2C(=O)c2cc(S(=O)(=O)Nc3nc(-c4ccccc4)cs3)ccc21
    -0.56	.
> CC(SCC(=O)Nc1ccccc1)c1nc2ccccc2c(=O)[nH]1 (centres undefined)
    -0.25	2.5
> Nc1ccc(Cl)cc1C(=O)NCc1ccccn1
    99	-0.35
> CSc1sc(Cl)c2c1/C(=N\O)CC(C)(C)C2
    0	-0.3
> Nc1ccc(Br)cc1C(NCC(=O)O)c1ccccc1 (centres undefined)
    -0.21	-0.35
> COc1ccc2nc(SC)c(C#N)cc2c1
    .	-0.3
> CC(C)(C)OC(=O)C(NC(=O)c1ccoc1)c1ccccc1 (centres undefined)
    -0.89	.
> O=C(CSc1nc2cc(C(=O)N3CCOCC3)ccc2c(=O)n1CCc1ccccc1)c1ccccc1
    0.17	.
> O=C(Nc1ccc(Oc2cc3ccccc3cc2Cl)c(Cl)c1)c1cc(Br)cc(Br)c1O
    1.2	.
> NCCCOc1ccccc1
    .	-1.2
> COc1cccc(-c2cn3nc(C)c(C)nc3n2)c1
    8.6	.
> COc1ccc(NC(=O)CSc2c(C)nn(-c3nnc(C)c(=O)[nH]3)c2C)cc1
    .	0.85
> CCC12CN3CC(CC)(CN(C1)C3c1ccccc1)C2=O (centres undefined)
    -0.53	.
> C=CCNC(=O)/C=C/c1ccc(C(C)C)cc1
    -0.05	-0.2
> CCOC(=O)c1sc2ncnc(NC3CCN(Cc4ccccc4)CC3)c2c1C
    40	.
> O=C(CSc1nnnn1-c1ccccc1)N1c2ccccc2CCc2ccccc21
    -1.3	2.8
> Cc1noc(C)c1COc1ccc(C(=O)NCCNc2ncc(C(F)(F)F)cc2Cl)cc1
    .	-0.15
> COc1ccc2oc(=O)c(-c3nnc(-c4ccccc4)o3)cc2c1
    .	-0.85
> CCN(CC)C(=O)Cn1cc(S(=O)(=O)CC#N)c2ccccc21
    .	-1.3
> Cc1c(Cl)ccc2c(C(=O)Nc3cc(C(C)(C)C)on3)cc(-c3ccccn3)nc12
    -0.21	-0.35
> Cc1ccccc1-c1nsc(SCC(=O)NCc2ccco2)n1
    .	-0.4
> CC(=O)Nc1sc2c(c1C(=O)Nc1ccccc1Cl)CCC2
    0.62	.
> CCCC1C(=O)CC(C#N)(C#N)C(C#N)(C#N)C1C (centres undefined)
    1.2	-1.4
> COc1ccccc1CNS(=O)(=O)c1ccc(F)c(C(=O)Nc2cc(C(F)(F)F)ccc2Cl)c1
    -0.28	.
> COc1cccc(C(=O)N2c3c(C)cccc3-c3c(ssc3=S)C2(C)C)c1
    -0.14	.
> CCc1ccc(C2(c3ccc(CC)cc3)SC3(SC(C(C)=O)=NN3c3ccc([N+](=O)[O-])cc3)c3ccccc32)cc1 (centres undefined)
    -0.38	.

Additional results.
molecule,Ba CapD inh,AID504770
C#CCN1C(=O)S/C(=C/c2ccc(N3CCCCC3)cc2C)C1=O,-0.88,1.2
CCc1nc(NCCCO)c2nnn(Cc3ccccc3F)c2n1,.,0.2
CCOC(=O)c1cc(=O)c(-c2ccccc2)n[nH]1,0.03,0.35
CCC(=O)Nc1cccc(C(=O)N/N=C/c2ccc3ccccc3n2)c1,-1.2,.
CCOC(=O)CNS(=O)(=O)c1cc(-c2nnc(Nc3cccc(Br)c3)c3ccccc23)ccc1C,-0.81,.
COc1ccc(CCn2c(=S)[nH]c3cc(C(=O)N4CCC(C(N)=O)CC4)ccc3c2=O)cc1OC,-0.2,.
CCCc1cc(C(=O)Nc2sc(C)c(C)c2C(=O)OCC)no1,0.065,0.6
CSc1sc(C(=O)NNC(=O)OCC2CCCC2)cc1-c1nc(C)cs1,1.2,.
CCOC(=O)c1c(/N=c2\oc3ccc(Cl)cc3cc2C(N)=O)sc2c1CCCC2,-0.15,.
CN(C(=O)CSC1=Nc2ccccc2C2=NC(c3ccccc3)C(=O)N12)C1CCCCC1 (centres undefined),0.035,-1.1

Next compounds.
molecule,Ba CapD inh,AID504770
CCOc1ccc2c(=O)c(-c3ccccc3)c(C)oc2c1,1.2,-1.1
COc1ccccc1-c1c(C)nn2c(NCCN3CCCCC3C)cc(C)nc12 (centres undefined),0.09,-1.1
CCOC(=O)c1c(CSc2ccccc2)n(-c2ccccc2)c2ccc(O)cc12,-0.31,.
CC(C)c1ccc(NC(=O)CN2C(=O)C3CC=CCC3C2=O)cc1 (centres undefined),-1.1,-0.65
O=C(NCCc1ccccc1)C1(S(=O)(=O)c2ccc(Cl)cc2)CC1,57,1.4
CC(Oc1ccc2c3c(c(=O)oc2c1)CCCC3)C(=O)O (centres undefined),54,.
C(=Nc1nc2ccccc2nc1N1CCOCC1)N1CCN(C(c2ccccc2)c2ccccc2)CC1,.,1.2
CC1CCCCN1c1nnc(NC(=O)Cn2c(=O)oc3ccccc32)s1 (centres undefined),0.21,-0.15
O=C(Nc1cc(F)c(Br)cc1F)c1ccco1,0.3,0.15
COCCOC(=O)C1=C(C)NC2=C(C(=O)CC(c3ccc(OC)cc3)C2)C1c1cccc([N+](=O)[O-])c1 (centres undefined),-0.66,.

Overlap with the part before: 6 compounds, then new ones.
molecule,Ba CapD inh,AID504770
O=C(NCCc1ccccc1)C1(S(=O)(=O)c2ccc(Cl)cc2)CC1,57,1.4
CC(Oc1ccc2c3c(c(=O)oc2c1)CCCC3)C(=O)O (centres undefined),54,.
C(=Nc1nc2ccccc2nc1N1CCOCC1)N1CCN(C(c2ccccc2)c2ccccc2)CC1,.,1.2
CC1CCCCN1c1nnc(NC(=O)Cn2c(=O)oc3ccccc32)s1 (centres undefined),0.21,-0.15
O=C(Nc1cc(F)c(Br)cc1F)c1ccco1,0.3,0.15
COCCOC(=O)C1=C(C)NC2=C(C(=O)CC(c3ccc(OC)cc3)C2)C1c1cccc([N+](=O)[O-])c1 (centres undefined),-0.66,.
CC1CCN(CC(=O)n2c3ccccc3c3ccccc32)CC1,0.82,0.05
CCN1CC(NS(=O)(=O)c2ccc(C#N)cc2)CN1CC,-0.09,.
CCCn1c2ccccc2c2nnc(SCC(=O)NC(C)c3ccccc3)nc21 (centres undefined),-1.1,0.6
Cc1ccc(NC(=O)/C(=C\c2ccc3c(c2)OCO3)NC(=O)c2ccccc2Br)c(Br)c1,0.55,.
Cc1cc(C(=O)Nc2ccccc2)no1,0.21,-1.4
CCCC(=O)n1c(=S)oc2cc(Cl)ccc21,0.32,-1.3
O=C(NCc1ccc2c(c1)OCO2)C(=S)N1CCCCC1,-0.31,2
O=C(O)CCC(=O)Nc1cccc(-c2nc3ccccc3[nH]2)c1,-0.14,-0.1
NC(=O)C1NCCc2c1[nH]c1ccccc21 (centres undefined),-0.41,.
Cc1ccc(C(=O)CC(NCCc2c[nH]c3ccccc23)C(=O)O)cc1 (centres undefined),-0.33,-1.7

Remaining list, next part
molecule,Ba CapD inh,AID504770
O=C(/C=C/c1cccs1)NC(=S)NCc1ccccc1,-3.2,-0.6
C=CCOc1ccc(Br)cc1/C=C1\Sc2ccccc2C1=O,-0.49,.
Cc1cc(C)c2nc(SCC(=O)c3ccco3)cc(C)c2c1,.,2.2
COc1cc(N/C=C(\C#N)c2nc(-c3cc4ccccc4oc3=O)cs2)c(OC)cc1Cl,0.25,.
COc1ccc(CC(=O)NCC(C)(C)N2CCOCC2)cc1,.,0.65
O=C1NC(=O)C(=Cc2ccccc2OCCOc2ccc([N+](=O)[O-])cc2)C(=O)N1,-0.64,.
CC(C)C(NC(=O)CSc1nnc(-c2ccc(F)cc2)o1)c1nc2ccccc2[nH]1 (centres undefined),.,-0.6
NC(=O)c1c(/N=c2\oc3ccc(Cl)cc3cc2C(N)=O)sc2c1CCCC2,1.4,.
CCCc1cc(C(=O)N2CCCN(C)CC2)cs1,0.83,-0.8
COc1cccc(CNc2ccc3c(c2)ncn3C2CCCCC2)c1,78,0.05

The list continues:
molecule,Ba CapD inh,AID504770
Nn1c(COc2cccc(Br)c2)nnc1SCC(=O)NCc1ccccc1,.,0
CSc1nc2ccccc2c(=O)n1Cc1ccc(F)cc1,.,0.4
Cc1cc(NC(=O)CSc2nc3ccc(N4CCOCC4)cc3c(=O)n2CCc2ccccc2)n[nH]1,6.1,-0.8
CCCCCn1c(N2CCOCC2)nc2c1c(=O)n(CC(N)=O)c(=O)n2C,.,0.95
COc1cc(Br)c(CC(=O)OCc2nc(N)nc(Nc3ccc(C)cc3)n2)cc1OC,.,-0.15
COc1ccccc1NC(=O)N1CCN(C(=O)OC(C)(C)C)CC1,-0.095,.
CC1=C(C#N)C(=O)N(CC(C)O)C(=O)/C1=C/c1ccc(-c2ccc(C(=O)OC(C)C)cc2)o1 (centres undefined),2.7,0.75
c1ccc2sc(Nc3nc4cc5c(cc4s3)OCO5)nc2c1,.,-0.95
O=C(O)C(CC1COc2ccccc2O1)C(=O)O (centres undefined),-0.015,0.95
N#CC(C#N)C(C#N)(C#N)C1CCCC1=O (centres undefined),66,0.75

(listing goes on)
molecule,Ba CapD inh,AID504770
Cc1noc(C)c1S(=O)(=O)Nc1ccc(N2CCN(C(=O)OC(C)(C)C)CC2)nc1,4.9,-0.8
NC(=O)CNC(=O)c1ccccc1,-0.74,-0.05
CCOC(=O)c1ccc(N=c2ssc3c2-c2cc(OC)ccc2NC3(C)C)cc1,-0.24,.
CCO/C(C)=C(\C#N)C(N)=O,.,-0.5
Cc1nc(C(F)(F)F)ccc1C(=O)NCCNc1ncccc1C(F)(F)F,-1.1,-0.45

From PubChem BioAssay
